# NPR1 antag = blocks ANP-stimulated signaling of human Npr1 receptor | P16066 | HEK293 hNpr1 GloSensor cGMP, ANP-stimulated luminescence | Potency, µM (series often up to 46.3 µM), for inactives: at the highest dose activity change, negative = inhibition, hits mostly inhibitors | 1.6% of 76,000 active | AID 1347048; active = well fitted inhibition curve with a large enough effect; inconclusive = small, poorly fitted or top-dose-only effect; inactive = no such curve, though single readings can be large or run the other way;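 also: nearly all actives have a fitted effect of over 60% in size; nearly all hits also lower the signal before the agonist is added; a reference antagonist and vehicle were the controls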
# Target sequence (P16066 whole entry, looked up): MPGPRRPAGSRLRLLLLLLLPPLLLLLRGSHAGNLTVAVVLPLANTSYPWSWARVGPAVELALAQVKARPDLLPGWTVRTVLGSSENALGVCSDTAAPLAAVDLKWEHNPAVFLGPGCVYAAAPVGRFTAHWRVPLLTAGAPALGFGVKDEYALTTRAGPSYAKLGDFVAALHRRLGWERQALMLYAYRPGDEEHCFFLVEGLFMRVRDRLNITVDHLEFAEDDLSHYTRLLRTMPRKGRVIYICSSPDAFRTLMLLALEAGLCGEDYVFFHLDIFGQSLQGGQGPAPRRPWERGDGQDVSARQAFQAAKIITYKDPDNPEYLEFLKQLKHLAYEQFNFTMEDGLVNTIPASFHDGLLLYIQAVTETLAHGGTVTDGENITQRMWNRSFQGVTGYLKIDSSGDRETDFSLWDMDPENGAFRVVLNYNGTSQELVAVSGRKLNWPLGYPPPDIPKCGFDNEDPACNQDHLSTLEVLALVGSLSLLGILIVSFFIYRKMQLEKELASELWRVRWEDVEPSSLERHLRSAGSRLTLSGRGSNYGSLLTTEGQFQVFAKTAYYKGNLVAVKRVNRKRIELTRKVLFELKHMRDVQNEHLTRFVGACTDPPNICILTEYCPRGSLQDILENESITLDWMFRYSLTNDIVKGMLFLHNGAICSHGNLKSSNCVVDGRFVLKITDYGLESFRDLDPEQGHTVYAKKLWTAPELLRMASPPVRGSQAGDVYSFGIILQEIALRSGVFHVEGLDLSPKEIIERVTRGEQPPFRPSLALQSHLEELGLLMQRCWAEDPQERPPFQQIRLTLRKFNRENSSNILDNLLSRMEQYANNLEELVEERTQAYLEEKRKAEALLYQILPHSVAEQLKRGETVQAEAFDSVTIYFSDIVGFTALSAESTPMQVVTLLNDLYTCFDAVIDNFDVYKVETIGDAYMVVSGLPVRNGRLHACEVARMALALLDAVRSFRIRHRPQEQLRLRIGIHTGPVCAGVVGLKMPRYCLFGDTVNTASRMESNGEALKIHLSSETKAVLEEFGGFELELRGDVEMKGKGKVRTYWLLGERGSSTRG
#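 Compound pre-incubated 30 min at room temperature on GloSensor-loaded HEK293 cells stably carrying hNpr1 and the pGS-40F cGMP biosensor. Stimulation uses hNppA at 0.1 nM final; luminescence is taken at baseline and 20 min post-agonist.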
# Numbers without * were called inactive; ? = inconclusive; [ ] = dose if it differs, or a comment. % is scaled to controls: 0 for no effect and ±100 for the full control effect; potency is read from the fitted curve at half-maximal effect.
SMILES	NPR1 antag
CC(C)CC(=O)N1CCCC(Cc2nc(C3CCOCC3)no2)C1 (stereo unspecified)	-1.3%
COc1ccc(S(=O)(=O)N2CCCN(C)c3ccccc32)cc1	-10.5%
O=C(Cn1ccn2nc(-c3ccccc3)c(CO)c2c1=O)Nc1ccc(Cl)cc1	-1.6%
Cc1ccc2c(C)c(C(=O)N3C[C@@H](CN4CCC(O)CC4)[C@@H](CO)C3)oc2c1	3.3%
CCCCNC(=O)C1CCN(C(=O)c2ncn3c2COC(c2ccc(F)cc2)C3)CC1 (stereo unspecified)	1.0%
O=C(N[C@@H]1CN(C2CCOCC2)CC[C@@H]1CO)c1ccccc1	8.5%
O=C(c1cc2ccccc2[nH]1)N1CCc2c(n(Cc3cccnc3)n(CCc3ccccc3)c2=O)C1	-8.0%
CCOc1ccc(C(=O)N(C)C2CCc3nnc(C)n3CC2)cc1OCC (stereo unspecified)	4.6%
O=C(NCc1cccs1)c1nc(-c2ccc(Cl)cc2Cl)c2ccccn12	2.0%
CCOc1ccc(CN2CCN(c3cc(C)nc(NC)n3)CC2CCO)cc1 (stereo unspecified)	0.2%
O=C(O)CCC(=O)N[C@H]1CCN2C(=O)c3cc(/C=C/c4ccccc4)ccc3NC(=O)[C@H]12	-7.5%[70.6 µM]
COc1cccc(C(=O)N2CCN(C(C(=O)O)c3ccc(O)cc3)CC2)c1 (stereo unspecified)	5.7%
CCN1CCN(CC(=O)NCc2ccc3[nH]c(-c4ccc(F)cc4)c(C)c3c2)CC1	0.0%
COCCNC(=O)c1ccc(OC2CCN(CCC(C)c3ccc(C)o3)CC2)c(Cl)c1 (stereo unspecified)	1.2%
O=C(CN1C(=O)NC2(CCOCC2)C1=O)N1CCN(c2ccc(F)cc2)CC1	-7.9%
CC(=O)NC[C@H]1O[C@H](Cc2cc(-c3ccc(F)cc3)on2)CC[C@@H]1O	?
CCOC(=O)c1ccc(NC(=O)Cn2c(-c3cnccn3)nc(C)c(C)c2=O)cc1	-24.5%
c1ccc(-c2cc3c(cn2)NCCN(Cc2ccsc2)C3)cc1	0.0%[70.6 µM]
CC(C)C[C@@H]1N[C@H](C(=O)N2CCOCC2)Cc2cn(Cc3cccnc3)c3cccc1c23	-11.6%[70.6 µM]
COc1ccc(-c2nccn3cc(C(=O)Nc4ccc(OC)c(OC)c4)nc23)cc1	-2.2%
O=C(Nc1ccncn1)[C@@H]1C[C@@H](c2cccc(C(F)(F)F)c2)N(CC2CCOCC2)C1	-6.7%[70.6 µM]
COc1ccc(CCNC(=O)CN2CC3CC(C2)[C@H]2CCCC(=O)N2C3)cc1OC (stereo partly specified)	2.9%
COC(=O)N1CCC2(CC1)C(=O)NN=C2C1CC1	3.4%[70.6 µM]
CC(C)NS(=O)(=O)c1cc(C(=O)O)cc(-n2cccn2)c1	-1.3%
CC1(C)CC(NC(=O)c2cc(Cn3cnc4ccccc43)[nH]n2)CC(C)(C)N1	-2.1%
COc1ccc(CN2CC3(C2)C(=O)N(Cc2cccc(Cl)c2)C(=O)[C@@H]2C[C@@H](O)CN23)c2ccccc12	-1.3%
Cc1nn2c(c1-c1ccccc1N1CCCC1)N(C(=O)c1cc3ccccc3n1C)CCC2	-18.6%[70.6 µM]
O=C(c1ccncc1)N1CC[C@H](c2nnc(-c3ccccc3)o2)C1	1.3%[70.6 µM]
CCc1ccc(C(=O)N2C[C@@H](CO)[C@H](c3nc(CCOC)no3)C2)cc1	4.9%
COc1ccccc1C(=O)Nc1ccnn1C1CCN(C(=O)C2CCCO2)CC1 (stereo unspecified)	4.5%
O=C(CN1C(=O)C(c2ccccc2)=NC12CCCC2)NC1CCCC1	-30.1%
O=C(c1ccc(F)cc1)N1CCn2c(nn(-c3ccc([N+](=O)[O-])cc3)c2=O)C1	-0.3%
COCCN1C(=O)CCc2cc(NC(=O)c3ccc4c(c3)OCO4)ccc21	2.2%
CC(=O)N1CCN(C(=O)c2ccc3c(c2)NC(C)(CNc2ccccc2)CO3)CC1 (stereo unspecified)	-3.5%[70.6 µM]
C=CCn1cc2c3c(cccc31)[C@H](CC(C)C)N[C@H](C(=O)NCc1ccccc1)C2	-16.8%[70.6 µM]
CC(=O)NC1(C)CCCN(c2ccc(OC(F)(F)F)cc2)C1 (stereo unspecified)	?
O=C(COc1ccccc1)N1CCOCC12CCN(Cc1ccccc1)CC2	3.2%[70.6 µM]
COc1cccc(NC(=O)N(C[C@H]2O[C@H](Cc3cc(-c4ccccc4)on3)CC[C@@H]2O)C(=O)Nc2cccc(OC)c2)c1	-0.7%
CC(=O)N1CCC(n2c(C)cnc2C2CC2)CC1	-1.0%
COC(=O)C1=CN(CC(=O)Nc2ccc(C)cc2C)S(=O)(=O)N=C1C	-11.3%
COc1cc(CNCc2ccc(C)c(F)c2F)ccc1OCC(O)CN1CCC(O)CC1 (stereo unspecified)	14.6%
CC(C)CNC(=O)N1CCCC(c2nc(CCOc3ccc(F)cc3)no2)C1 (stereo unspecified)	-20.2%
COC[C@@H]1CN(Cc2cc(C)nn2C)C[C@H]1C(=O)NC1CC1	6.2%
COc1ccc(-c2cc(C(=O)N3C[C@@H](CN(C)C)[C@@H](CO)C3)[nH]n2)cc1	2.2%
C[S+](=O)([O-])NCCn1ccc2cc(OC3CCN(c4ncccn4)CC3)cnc21	?
CN1CCc2c([nH]c3ccccc23)C12CCN(C(=O)c1cn(C)cn1)CC2	6.5%
CCCN1C(=O)CC[C@H]2CN(C(=O)Cc3cnc(C)[nH]c3=O)CC[C@H]21	-0.7%
Cc1nc(CN2CC3(CCN(C)C3)c3cc(C(=O)NCCc4ccccc4)ccc32)cs1 (stereo unspecified)	0.4%
Cc1cccc(CC(=O)N2CCCN(S(C)(=O)=O)c3ccccc32)c1	-0.6%
Cn1cc(CN2CCOc3cc([S+](=O)([O-])Nc4cccnc4)ccc3C2)cn1	6.2%[70.6 µM]

# Three entries from above, ordered by molecular weight, lowest first:
SMILES	NPR1 antag
COc1ccc(-c2cc(C(=O)N3C[C@@H](CN(C)C)[C@@H](CO)C3)[nH]n2)cc1	2.2%
O=C(COc1ccccc1)N1CCOCC12CCN(Cc1ccccc1)CC2	3.2%[70.6 µM]
CC(=O)N1CCN(C(=O)c2ccc3c(c2)NC(C)(CNc2ccccc2)CO3)CC1 (stereo unspecified)	-3.5%[70.6 µM]

# Additional records
SMILES	NPR1 antag
Cc1occc1C(=O)N1CCC2(CC1)N=C(CC(C)C)NC2=O	6.4%
Cn1nc(C2CCCN(C(=O)CCc3ccccc3)C2)n(C2CCCC2)c1=O (stereo unspecified)	-23.8%
Cc1ccc2[nH]c(CCC(=O)N3CC[C@H](CO)[C@H](O)C3)nc2c1C	-0.9%
Cn1cc(C(=O)N2CCC(N(C3CCOCC3)S(C)(=O)=O)CC2)cn1	-1.8%
CCNC(=O)c1ccccc1-c1ccc(S(=O)(=O)N(CC)CC)cc1	1.5%
O=C(Cc1ccc(CO)cc1)N1CCOC(C(F)(F)F)C1 (stereo unspecified)	2.3%
CC(=O)N1CCN(c2nc3c(s2)CC(C(=O)Nc2cc(Cl)ccc2F)CC3)CC1 (stereo unspecified)	-21.7%
COCCNC(=O)c1ccc2c(c1)N(C)C(CC(=O)N(C)C(C)C)CO2 (stereo unspecified)	-1.0%
Cc1ccc(NC(=O)Cn2c(=O)c(-c3noc(C)n3)c3n(c2=O)CCCC3)cc1	6.6%
Cc1cccc(C(=O)N2CCCOCCNC(=O)[C@@H]3CCCC[C@@H]32)c1	0.8%
CC(C)NC(=O)c1nc(-c2ccccc2)c2ccccn12	2.2%[70.6 µM]
CC1(C)NC(=O)N(CC(=O)N[C@@H]2COCC[C@H]2Oc2ccc(C#N)cc2)C1=O	2.2%
CC(C)c1cccc(NC(=O)c2ccc(Cn3ccn4nc5c(c4c3=O)CCCC5)cc2)c1	-14.1%
OC[C@@H]1CNC[C@H]1C1CCN(Cc2ccc(OC(F)(F)F)cc2)CC1	-1.8%
COc1cc([C@@H]2c3cc4c(cc3[C@H](O)[C@@H](CO)[C@@H]2C(=O)NC(C)C)OCO4)cc(OC)c1OC	-4.9%
CCCC(C)N1CC2(CCN(C(=O)c3cnn4ccccc34)CC2)OC1=O (stereo unspecified)	-0.7%
COc1ccc(CN2C[C@@H](F)[C@@H](OCc3nc4ccncc4[nH]3)C2)cn1	-5.9%[70.6 µM]
COc1ccc(C(=O)N[C@H]2CO[C@H]3[C@@H]2OC[C@@H]3n2nnnc2-c2cccc(OC)c2)cc1	?
COCCNC(=O)C[C@@H]1C[C@H]2O[C@H](CNCc3ccccc3OC)[C@@H](O)[C@H]2O1	4.2%[70.6 µM]
CCc1noc(CC2CCOC3(CCN(S(=O)(=O)c4ccc(F)c(F)c4)CC3)C2)n1 (stereo unspecified)	10µM*
Cn1nccc1C(=O)NCC1COc2ncncc2C(=O)N1Cc1ccccc1 (stereo unspecified)	2.2%[70.6 µM]
CCc1noc(-c2cn(C3CCN(C(=O)c4cccn4C)CC3)nn2)n1	-2.9%
CCC(=O)N1CCN(c2nc3c(s2)CC(C(=O)NCC(C)C)CC3)CC1 (stereo unspecified)	-17.9%
COCCn1c(C)cnc1CCNC(=O)COc1ccccc1	0.0%
Cc1[nH]c2ccccc2c1CC(=O)NCc1ccccc1-n1cncn1	1.1%

# Ordered by the number under NPR1 antag (low to high): three of the compounds above
SMILES	NPR1 antag
Cn1nc(C2CCCN(C(=O)CCc3ccccc3)C2)n(C2CCCC2)c1=O (stereo unspecified)	-23.8%
OC[C@@H]1CNC[C@H]1C1CCN(Cc2ccc(OC(F)(F)F)cc2)CC1	-1.8%
CC1(C)NC(=O)N(CC(=O)N[C@@H]2COCC[C@H]2Oc2ccc(C#N)cc2)C1=O	2.2%

# (next part)
Compound | NPR1 antag
CC(C)(C(=O)NCCC1COc2ccccc2O1)N1CCOCC1 (stereo unspecified) | -2.1%
Cc1ccc(C(=O)N2CCN(C(=O)N3CC4CC(C3)[C@H]3CCCC(=O)N3C4)CC2)cn1 (stereo partly specified) | 5.3%
Cc1ccccc1CCC1CCCNC1 (stereo unspecified) | 6.0%
COCC1CN(C2CCC2)CC12CCN(C(=O)c1ccccc1C)CC2 (stereo unspecified) | -16.9%
COc1ccc(C2(C(=O)N3CCCCCNC(=O)CC3c3ccccc3)CC2)cc1 (stereo unspecified) | -0.6%
Cc1cccc(CNC(=O)c2c(C)noc2-c2ccccc2Cl)c1 | -3.0%
COC(=O)N1CCC2(C1)C(=NC1CCCC1)NC(=O)N2c1cccnc1 (stereo unspecified) | 11.4%
O=C(CCc1cccnc1)N1CCc2c(n(CCOc3ccccc3)n(-c3ccccc3)c2=O)C1 | 0.5%
CNC(=O)[C@@H]1CN(C(=O)c2c(F)cccc2F)C[C@H]1C1CCN(C)CC1 | 11.6%
O=C(O)[C@@H]1CN(C(=O)N2CCOCC2)C[C@H]1c1ccccn1 | 0.5%
CC(C)CCNC(=O)Cn1ccn2nc(-c3ccc(F)cc3)c(CO)c2c1=O | 2.9%
COc1cccc(-c2noc(CC3CCN(C(=O)c4ccccc4)CC3)n2)c1 | 7.94µM*
Cc1ccc(-c2nnc3ccc(NC4CCC4)nn23)nc1 | -10.7%[70.6 µM]
COc1cccc(CN2C[C@H]3[C@H](C2)[S+](=O)([O-])C(C)(C)C(=O)N3CCOc2ccccc2)c1 | -2.0%
COc1cccc(N2CCN(C(=O)CCn3ccn4nc5c(c4c3=O)CCCC5)CC2)c1 | -1.3%
COc1ncccc1-c1cnc2[nH]cc(CC(=O)NC3CC3)c2c1 | -25.2%[70.6 µM]
Cc1noc(C)c1-c1cc2cc(CN(C)C)oc2c(Nc2cccc([S+](C)(=O)[O-])c2)n1 | 2.7%[70.6 µM]
OC1(c2cccc(C(F)(F)F)c2)CCN(Cc2nc(-c3cccs3)no2)CC1 | ?
Clc1ccccc1C1Cn2cnc(-c3nc(-c4ccccn4)no3)c2CO1 (stereo unspecified) | -13.7%
COc1ccc(CN(C)Cc2ccccc2C(F)(F)F)cc1 | 23.2%[70.6 µM]
Cc1nc(C2CC(O)C2)cc(N2CCC(OCc3cccnc3)CC2)n1 (stereo unspecified) | -14.3%
COc1ccc(C(=O)N2CCC(C(NC(=O)c3ccccc3Cl)C(=O)N3CCCCC3)CC2)cc1 (stereo unspecified) | 0.7%
Cc1ccccc1-c1nc2cnccn2c1NCCC(=O)NCc1ccco1 | 4.7%
CN1CCN(C)C2(CCN(C(=O)c3cn4cc(Cl)ccc4n3)CC2)C1 | -0.8%
COc1ccc(C(=O)N2CCN(C(=O)c3ccccc3)C[C@@H]2C(=O)N[C@H]2CCCNC2=O)cc1 | -1.8%
O=[S+]([O-])(c1cccs1)N1CCc2nc(C3CC3)nc(-c3ccc(Cl)cc3)c2CC1 | -21.9%
Cc1cccc(-n2nc(-c3c(C)nc4scc(CC(=O)NC5CCCCC5)n4c3=O)cc2C)c1C | -11.9%
CN(C)CCCNC(=O)c1ccc2c(c1)N(S(C)(=O)=O)CC2 | 1.6%
Cc1noc(C)c1CCCNC(=O)c1ccc(N(C)C2CCOC2)nc1 (stereo unspecified) | 0.6%
Cc1cc(C)cc(-c2ccc(CN3CCCC(c4nc5ccc(F)cc5c(=O)[nH]4)C3)cc2)c1 (stereo unspecified) | -15.3%
COc1ccc(C(=O)NC2CCN(c3cnn(C)c(=O)c3)CC2)c(OC)c1 | -10.0%
O=C(NCC1CCOCC1)Nc1ccc(C(F)(F)F)cc1 | 5.3%
CCCN(Cc1nc(-c2ccc(C(F)(F)F)cc2)oc1C)CC1CCCO1 (stereo unspecified) | -8.0%
CN1CCN([C@H]2CCN(C(=O)c3ccsc3)C[C@H]2CCCO)CC1 | 0.4%
COCCC(=O)N1CCC2(CC1)CC(N(Cc1ccc(F)cc1)C1CC1)CCO2 (stereo unspecified) | -1.8%

# Screening data deposited in PubChem BioAssay by National Center for Advancing Translational Sciences (NCATS).

# An excerpt. The share of hits here may be higher or lower than overall.
